miR-21 reporter: miR-21 reporter, rising signal; HeLa miR-21 FLuc reporter, luciferase, 48 h; Potency, µM (top dose mostly 38.3 µM), for inactives: top-dose reporter change, positive = more light; 340,000 tested, under 10 active; AID 2288; active = well fitted rising curve with a large enough effect; inconclusive = small, poorly fitted or top-dose-only effect; inactive = no such curve, though single readings can be large or run the other way;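 further: % of control where 0% means no effect; miR-21 action dims this reporter so a rising signal means less miR-21 action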
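Luminescence from a firefly luciferase reporter carrying a miR-21 binding site downstream, stably expressed under a CMV promoter in HeLa cells that make miR-21 endogenously, reports miRNA modulation after 48 h compound exposure up to approximately 40uM final.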
Rango dissoc inh: inhibitors of RanGTP-induced Rango-importin beta complex dissociation; Biochemical FRET Rango-importin beta, RanGTP-induced dissociation; Potency, µM (highest dose often 46.1 µM), inactives show at the highest dose activity change, negative = inhibition; 0.071% of 340,000 active; AID 540253; active means falling FRET ratio curve, often poorly fitted, with flat reads before Ran was added; inconclusive means other falling curves, or compound fluorescence or quenching; inactive means flat or rising ratio curve;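 further: potency means the concentration at half of the fitted maximal effect; % of control where 0% means no effect; nearly all actives have a fitted effect of over 45% in size; -100% = wells without RanGTP and RCC1; the record marks most hits as doubtful in a second field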
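Quantitative HTS using a FRET biosensor: 0.1 uM Rango, 0.25 uM importin beta, 0.6 uM Ran, 2 mM GTP, 0.2 uM RCC1 final, PBS with DTT, Tween-20 and BSA. Post-read taken 45 min after Ran addition.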
GLA inh pH 4.5: alpha-galactosidase A (human) inhibition, pH 4.5. P06280. purified enzyme, 4-MU-alpha-Gal fluorescence, pH 4.5. activity change, negative = inhibition, % at 105 µM. 230,000 tested, under 10 active. AID 1467; inconclusive = small, poorly fitted or top-dose-only inhibition, or a rising curve; inactive = flat fitted curve, though single readings scatter; no compound was filed as active;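 further: 0% = full activity with enzyme and -100% = basal without enzyme; dose as in the result columns while the protocol names 77 µM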
Target sequence (P06280 whole entry, looked up): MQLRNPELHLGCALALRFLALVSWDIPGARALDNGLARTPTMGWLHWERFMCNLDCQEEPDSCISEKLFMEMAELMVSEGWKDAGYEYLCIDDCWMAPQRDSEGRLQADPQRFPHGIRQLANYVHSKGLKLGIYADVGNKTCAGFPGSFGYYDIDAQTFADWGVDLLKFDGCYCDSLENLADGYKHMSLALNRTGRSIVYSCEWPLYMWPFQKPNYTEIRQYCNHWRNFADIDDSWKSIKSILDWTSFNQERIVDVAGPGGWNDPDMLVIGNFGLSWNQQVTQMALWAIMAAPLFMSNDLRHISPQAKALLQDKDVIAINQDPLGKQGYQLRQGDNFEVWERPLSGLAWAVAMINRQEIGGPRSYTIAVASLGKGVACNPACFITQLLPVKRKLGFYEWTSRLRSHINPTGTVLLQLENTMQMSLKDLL
Rango complex inh: inhibitors of Rango-importin beta complex formation; Q14974; AID 540263; Rango CFP/YFP FRET sensor + importin beta, 45 min; 0.031% of 340,000 active; Potency, µM (top dose mostly 92.2 µM), inactives show at the top dose inhibition of complex formation; active = rising FRET ratio curve, often small or poorly fitted; inconclusive = mostly compound fluorescence or quenching in the first reads; inactive = flat curves in all reads;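 further: potency means the concentration at half of the fitted maximal effect; 0% = DMSO wells and 100% = buffer wells lacking importin beta; nearly all actives have a fitted effect of over 15% in size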
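FRET biosensor Rango (snurportin 1 IBB between N-terminal EYFP and C-terminal Cerulean), 50 nM in PBS/1 mM DTT/0.02% Tween-20/0.1% BSA, preincubated 5 min RT with compound; 0.125 microM importin beta added, 45 min RT, CFP/YFP FRET ratio read.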
The depositor's hits bear a star; ? = inconclusive; / = not tested or not shown; & = joins results of further samples. This is a subset, so the mix of outcomes need not match the whole.

| miR-21 reporter | GLA inh pH 4.5 | Rango complex inh | Rango dissoc inh | Structure |
| --- | --- | --- | --- | --- |
| -13% | 4 | -3.7% | -10% | C=CCOc1ccc(C2C(C(=O)c3ccco3)=C(O)C(=O)N2CCCN(CC)CC)cc1 (stereo unspecified) |
| / | / | 5.9% | 1% | O=C(NN=Cc1ccccc1C(=O)O)c1cccc(S(=O)(=O)Nc2cccc(C(F)(F)F)c2)c1 |
| -7% | -23 | 5.2% | -12% | CCOc1ccc(NC(=O)c2ccc3c(c2)N(Cc2ccc(F)cc2)C(=O)CS3=O)cc1 (stereo unspecified) |
| -45% | / | 0.1% | -4% | COc1cccc(NC(=O)c2ccc3c(c2)N(C)CCS3)c1 |
| 2% | -2 | ? | -6% | COc1ccccc1N1C(=O)[C@@H]2C(C(=O)CN3C(=O)c4ccccc4C3=O)=NN[C@@H]2C1=O |
| 0% | / | 0.6% | -22% | CCCCn1c(SCC(=O)NC2CCCC2)nnc1-c1ccco1 |
| 1% | -15 | 1.2% | 10% | CCCC(=O)Nc1ccccc1NC(=O)c1ccc(OC(C)=O)cc1 |
| -1% | 1 | -2.3% | 15% | O=C(NCCCN1CCOCC1)c1ccco1 |
| -6% | -9 | 4.9% | -3% | COc1cc(-c2n[nH]c(=S)n2-c2ccccc2C(F)(F)F)cc(OC)c1OC |
| -6% | / | 0.1% | 1% | COC(=O)Cc1ccc(NC(=S)N2CCC(Cc3ccccc3)CC2)cc1 |
| / | / | 0.3% | -1% | COc1cccc(COC(=O)C2CC(=O)N(Cc3ccc(C)cc3)C2)c1OC (stereo unspecified) |
| -16% | 0 | ? | -32% | COc1cc(/C=C2/C(=N)N3C=CSC3=NC2=O)ccc1OCCCOc1ccccc1C |
| -67% | -6 | -3.8% | -10% | COc1cccc(C(=O)Nc2cc3c(cc2Cl)OCCCO3)c1 |
| 17% | -3 | 2.5% | 10% | COc1cc(C(=O)NNC(=S)NC(=O)/C=C/c2ccccc2)cc(OC)c1OC |
| -48% | -26 | -5.1% | 7% | Cc1ccc(-c2ccc(/C=N/NC(N)=S)o2)cc1 |
| -1% | -2 | -6.7% | 7% | Cc1cccc(OCCCn2ccnc2)c1 |
| 0% | -2 | 0.1% | -4% | CCOC(=O)C1(Cc2cccc(F)c2)CCN(Cc2cnn(CC)c2)CC1 |
| / | / | 3.5% | 6% | O=C(COC(=O)C1CC2C=CC1C2)Nc1ccccc1[N+](=O)[O-] (stereo unspecified) |
| -4% | / | 0.4% | -8% | Cc1c(C(=O)N(C)c2ccccc2)oc2c1C(O)CC(C)(C)C2 (stereo unspecified) |
| 0% | 5 | 1.0% | 21% | NCCCCc1cn(CC(=O)N2CCNCC2)nn1 |
| / | / | -0.2% | 14% | CCC(C)c1ccccc1N1CC(C(=O)Nc2ccc(N3CCOCC3)cc2)CC1=O (stereo unspecified) |
| -2% | 8 | 2.3% | 9% | N#Cc1ccccc1NC(=O)COC(=O)/C=C/c1cn(-c2ccccc2)nc1-c1ccc(Cl)cc1 |
| -4%&0% | / | 0.6% | -9% | Cc1ccc(N(C)C(=O)CCS(=O)(=O)c2cc3c(cc2Cl)NC(=O)CO3)cc1 |
| -27% | -1 | 2.1% | -12% | O=C(COc1ccccc1)NNC(=O)c1cc2ccccc2oc1=O |
| / | / | -1.6% | 1% | Cc1cccc(NC(=O)COC(=O)c2ccc(C)c(S(=O)(=O)N3CCCCC3)c2)c1 |
| -5% | / | 1.1% | 27% | NC(=O)C1CCCN(Cc2ccc3ccccc3c2)C1 (stereo unspecified) |
| ? | 1 | 0.5% | -1% | CCN(CC)CCCNC1=C(Cl)C(=O)c2ccccc2C1=O |
| -2% | -15 | 0.3% | 5% | Cc1cc(C)c2cc(CNC3CCCC3)c(Cl)nc2c1 |
| 10% | -14 | -4.5% | 2% | Cc1cccc(C(=O)N[C@H](C(=O)Nc2ncc(C)s2)C(C)C)c1 |
| -3% | 4 | -0.2% | 20% | NNC(=O)c1sc2cc(C(F)(F)F)cnc2c1-c1ccccn1 |
| 0% | 1 | 0.9% | 10% | CC(=O)Nc1c(NC(C)(C)C)c2ccccc2oc1=O |
| -1% | 1 | 4.1% | 3% | C[N+](C)(C)CCNC(=O)c1c(O)c2c([nH]c1=O)CCCC2 |
| 1% | / | -2.1% | ? | CC(=O)N(CCc1ccccc1)Cc1cc2ccc(C)c(C)c2[nH]c1=O |
| 1% | 6 | -2.4% | 15% | C/C(CS(=O)(=O)c1ccc(Cl)c(Cl)c1)=N/NC(N)=S |
| / | / | 0.3% | 1% | OC(c1ccccc1)(c1ccccc1)c1ncc[nH]1 |
| 1% | / | ? | ? | O=C(O)c1ccc(-c2ccc(/C=c3/sc4nc5ccccc5n4c3=O)o2)cc1Cl |
| / | / | -4.8% | 0% | CCCCC/C=C/C1=CC(=O)C[C@H](c2ccc(OC)c(OC)c2)C1 |
| / | / | 2.5% | 1% | O=C(C[C@H]1C[C@H](C(=O)N2CCOCC2)[C@@]2(CCC3CCCC3)c3[nH]c4ccc(Cl)cc4c3CCN2C1=O)NCC12CC3CC(CC(C3)C1)C2 |
| -1% | / | 4.0% | 18% | Cc1cc(C)c(C(=O)N(C)CC2CCCN(CCc3ccccc3F)C2)o1 (stereo unspecified) |
| / | / | -3.1% | 4% | O=S(=O)(Nc1cccc(-c2ccc(N3CCOCC3)nn2)c1)c1ccc(Cl)c(Cl)c1 |
| -63% | / | -0.2% | 5% | CCCc1cc(C(=O)Nc2ccc(CC)cc2)no1 |
| -32% | 0 | -2.4% | -14% | CCC(=O)Nc1ccc(OCc2nnc3c4ccccc4c(C)nn23)cc1 |
| 1% | -6 | 0.2% | 13% | Cc1ccc(C)c(-c2csc(N/N=C/c3ccco3)n2)c1 |
| 0% | / | -1.8% | -19% | CC1(C)Cc2ccccc2C(COc2ccccc2)=N1 |
| -3% | / | 3.0% | 0% | CC(NS(=O)(=O)c1ccc(Br)cc1)C(=O)NC1CCCCCC1 (stereo unspecified) |
| -1% | / | 1.0% | -4% | COc1ccccc1NC(=O)c1ccc2c(c1)C(=O)N(c1ccccc1OC)C2=O |
| / | / | 0.0% | 2% | CCS(=O)(=O)N1CCC(C(=O)OCC(=O)c2ccc(Br)cc2)CC1 |
| 15% | 0 | -6.0% | 0% | O=C(c1ccccc1)c1ccc(OCC(O)CN2CCN(Cc3ccccc3)CC2)cc1 (stereo unspecified) |
| -2% | 1 | 1.6% | -6% | Cc1onc(-c2ccccc2Cl)c1C(=O)NCc1ccccc1 |
| / | / | 5.8% | -16% | O=C(OCC(=O)N1CCC(Cc2ccccc2)CC1)c1ccccc1O |
| 0% | 8 | -4.1% | 2% | CCOC(=O)N1CCN(C(=O)CSc2ccc3nnc(-c4ccccn4)n3n2)CC1 |
| -2% | 4 | 4.3% | 12% | Cc1cc(C)cc(N(CC(=O)N2CCC(C)CC2)S(=O)(=O)c2ccccc2)c1 |
| 0% | 2 | ? | 1% | CN(C)S(=O)(=O)c1ccc(C(=O)NNC(=O)C2COc3ccccc3O2)cc1 (stereo unspecified) |
| 0% | / | -5.9% | -21% | O=C(CCn1c(=O)oc2ccccc21)Nc1cccc([N+](=O)[O-])c1 |
| / | / | 2.3% | -7% | Nc1ccccc1-c1nnc(SCC(=O)Nc2ccccc2OC(F)F)[nH]c1=O |
| 0% | / | -3.3% | -4% | CCOc1ccc(NC(=O)NNC(=O)c2ccc3ccccc3c2O)cc1 |
| -17% | / | 1.6% | -1% | O=C(CSCc1ccccc1)NNc1c(F)c(F)cc(F)c1F |
| 2% | / | ? | -25% | COC(=O)/C(C#N)=C/c1c(N2CCCCCC2)nc2c(C)cccn2c1=O |
| / | / | -0.6% | -1% | CC(=O)Nc1sc(C)c(C)c1C(=O)OCC(=O)NCc1ccc(Cl)cc1 |
| -52% | 6 | ? | -16% | CCCCNC(=O)CSc1nc2ccc(N3CCOCC3)cc2c(=O)n1Cc1ccc(OC)cc1 |

Full records, quoted from the list.
Cc1ccc(-c2ccc(/C=N/NC(N)=S)o2)cc1 is listed as miR-21 reporter: -48%; GLA inh pH 4.5: -26; Rango complex inh: -5.1%; Rango dissoc inh: 7%
C/C(CS(=O)(=O)c1ccc(Cl)c(Cl)c1)=N/NC(N)=S is listed as miR-21 reporter: 1%; GLA inh pH 4.5: 6; Rango complex inh: -2.4%; Rango dissoc inh: 15%

The list continues:
| miR-21 reporter | GLA inh pH 4.5 | Rango complex inh | Rango dissoc inh | Structure |
| --- | --- | --- | --- | --- |
| 0% | / | 0.6% | -6% | Cc1cc(C)c(NC(=O)CS(=O)CC(=O)N2CCN(c3cccc(C)c3C)CC2)c(C)c1 (stereo unspecified) |
| 0% | 0 | -6.2% | 0% | Cc1cccc2cc(C(c3nnnn3Cc3ccccc3)N3CCN(C)CC3)c(=O)[nH]c12 (stereo unspecified) |
| / | / | ? | -7% | O=Nc1c(O)ccc2cc(S(=O)(=O)O)ccc12 |
| -11% | -1 | ? | -21% | CCOC(=O)N1CCN(C(=O)Nc2ccc3oc(C)nc3c2)CC1 |
| -3% | 3 | -0.7% | 0% | CCOc1ccc(-n2c(SCC(=O)NCc3ccco3)nc3ccccc3c2=O)cc1 |
| 4% | 2 | 3.2% | 22% | CC(C)C(NC(=O)OCc1ccccc1)C(=O)N1CCOCCOCCOCC1 (stereo unspecified) |
| -5% | -5 | ? | -11% | COc1cc(SC#N)ccc1N=Cc1c(C)[nH]n(-c2ccc(C)cc2C)c1=O |
| 8% | 3 | 0.9% | 1% | COc1ccc(NS(=O)(=O)c2ccc(NC(C)=O)cc2)c(OC)c1 |
| / | / | 0.2% | 9% | O=C(Nc1ccccc1N1CCCC1)C1CCN(C(=O)c2ccc(F)cc2)CC1 |
| / | / | 5.9% | -7% | CC(Oc1ccccc1F)C(=O)NNC(=O)CCNC(=O)c1ccco1 (stereo unspecified) |
| / | / | 3.4% | -8% | CC(C)Cn1cnc2c(SCc3ccccn3)nc(N)nc21 |
| -31% | -4 | -1.6% | 16% | Cc1ccc(COc2ccccc2C(=S)N2CCCC2)cc1 |
| -28% | 0 | -0.2% | 6% | O=C(Nc1cccc(Cl)c1)c1ccc(OC(=S)N2CCOCC2)cc1 |
| -1% | / | 0.7% | 12% | COCCCn1c(SCC(=O)Nc2ccc(NC(C)=O)cc2)nc2sc3c(c2c1=O)CCC3 |
| -8% | -15 | ? | ? | O=c1nc2c(O)cccn2c2c1c(=O)[nH]c1ccccc12 |
| 8% | / | -0.7% | 5% | CCCCc1cc(=O)oc2cc(C)cc(OCC(=O)Nc3cccnc3)c12 |
| 0% | -8 | -1.9% | -2% | Cc1cc(C)n2nc(CC(=O)NCc3ccccc3Cl)nc2n1 |
| / | / | 3.5% | -3% | CCN(CC)S(=O)(=O)c1ccc(N2CCCC2)c(NC(=O)c2ccc(N3CCCC3=O)cc2)c1 |
| 1% | -1 | -2.5% | -12% | CCCCCNS(=O)(=O)c1cc(C)ccc1OC |
| 0% | 11 | -2.4% | 0% | CCOc1cc(NC(=S)NCc2ccco2)c(OCC)cc1NC(C)=O |
| -11% | 0 | -1.0% | -7% | COc1ccc(NC(=O)C(=O)NCCO)cc1Cl |
| -2% | 4 | -3.4% | -6% | CCCOC(=O)CC1C(=O)NCCN1Cc1cc(OC)cc(OC)c1 (stereo unspecified) |
| 19% | / | -0.3% | 2% | Cc1cc(OCC(=O)Nc2ccncc2)cc(C)c1Cl |
| -8% | 7 | 1.3% | -10% | Cc1ccnc(NC(=O)c2cccc(NS(=O)(=O)c3ccccc3C)c2)c1 |
| -2% | 2 | 2.6% | ? | O=C(NC1CCCCC1)C1CCCN(S(=O)(=O)c2ccc(Br)s2)C1 (stereo unspecified) |
| 1% | / | 0.0% | -4% | COc1ccc(CNC(=O)c2nccnc2CO)cc1 |
| / | / | 1.1% | -4% | O=C(Cn1cc(COc2ccc(Br)cc2[N+](=O)[O-])nn1)c1ccc(O)cc1 |
| 1% | / | 6.1% | 11% | CC1CN(C(=O)CCC(=O)NC2CCN(Cc3ccccc3)CC2)c2ccccc2O1 (stereo unspecified) |
| 0% | 1 | -1.0% | -12% | CCOC(=O)c1cn(CC(=O)Nc2cccc(F)c2)nn1 |
| -5% | / | -8.9% | -6% | CC(Sc1nccn1C)C(=O)c1ccc(Br)cc1 (stereo unspecified) |
| -4% | / | 0.4% | 8% | O=C(NCCc1ccccc1)c1ccc(CS(=O)(=O)Cc2ccc(F)cc2)o1 |
